HNF4A DNA FP – change in binding of human HNF4 alpha to DNA; P41235; HNF4a-FITC DNA binding, fluorescence polarization, 1 h; activity change, % at 10 µM; actives 0.3% (n = 360,000); AID 1224865; in the data active = activity change above about 30%, passing the limit was not always enough;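 also: controls were the assay level and a saturating level of protein; the project sought stronger binding though the title names inhibitors; some compounds called inactive have numbers as strong as hits; positive values seem to mean higher polarization but the record does not say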
Target sequence (P41235 whole entry, looked up): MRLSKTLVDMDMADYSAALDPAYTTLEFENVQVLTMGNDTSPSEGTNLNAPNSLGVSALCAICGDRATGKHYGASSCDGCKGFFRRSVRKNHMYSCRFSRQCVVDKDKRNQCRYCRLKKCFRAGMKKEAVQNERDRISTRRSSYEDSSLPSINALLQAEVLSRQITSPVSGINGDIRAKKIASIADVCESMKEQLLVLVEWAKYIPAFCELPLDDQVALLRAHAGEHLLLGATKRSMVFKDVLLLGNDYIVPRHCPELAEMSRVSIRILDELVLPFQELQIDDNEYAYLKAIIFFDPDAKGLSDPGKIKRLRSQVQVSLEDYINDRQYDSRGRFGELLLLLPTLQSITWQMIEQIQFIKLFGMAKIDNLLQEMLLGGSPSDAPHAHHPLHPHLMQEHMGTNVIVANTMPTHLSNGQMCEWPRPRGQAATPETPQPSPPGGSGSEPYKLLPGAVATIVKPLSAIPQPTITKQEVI
Numbers without * were called inactive.

SMILES	HNF4A DNA FP
COCCCN1C(=O)C(CC(=O)NC2CC2)CC(C(=O)N2CCOCC2)=C1C (stereo not given)	-1.2
O=C(NCc1ccccc1)C(c1cc2ccccc2o1)n1c(=O)c(-c2ccccc2)nc2ccccc21 (stereo not given)	6.5
COc1ccccc1S(=O)(=O)N(C)C[C@@H]1OCc2cnnn2CCCC(=O)N([C@H](C)CO)C[C@@H]1C	-0.2
COC(=O)CCCn1cc(CN2CC(N3CCCCC3)CS2(=O)=O)nn1 (stereo not given)	2.7
CCc1nc2c(OCc3ccc(C#N)cc3)cccn2c1N(C)C(=O)c1ccco1	0.2
CC1(C)CC(NCc2ccccc2)=CC(=S)N1	16
O=C(NC(c1ccc(Cl)cc1)c1ccccn1)C1CCN(CCOc2ccc(Cl)cc2Cl)CC1 (stereo not given)	4.0
COC(=O)CCCC[C@@H]1O[C@H](CCc2ccccc2)CC2=C1C(=O)OC(C)(C)O2	-3.3
Cn1cccc1CN1CCC[C@]2(N[C@H](c3ccc(C(F)(F)F)cc3)[C@@H]3C(=O)N(Cc4ccccc4)C(=O)[C@@H]32)C1=O	2.4
COC(=O)[C@@]12C[C@@H](CC(=O)NCc3cccc4ccccc34)C(=O)N(Cc3ccccc3)C1=CCC(C)(C)C2	2.0
O=C(Nc1nnc([C@H]2C[C@H](O)[C@@H](CO)O2)s1)Nc1ccccc1F	1.4
C[C@H]1CN([C@@H](C)CO)C(=O)CCCn2nncc2CO[C@H]1CN(C)C(=O)Nc1ccccc1	-1.0
O=C(NCCN1CCC(n2c(=O)[nH]c3ccccc32)CC1)c1ccc(Cl)cc1	0.1
O=C(NCc1ccccc1)c1cc(C2CCCCN2C(=O)CCc2ccccc2)on1 (stereo not given)	-0.7
COC[C@H]1CCCN1c1ccc2c(c1)O[C@H](COCc1ccccc1)CN([C@H](C)c1ccccc1)S2(=O)=O	-2.1
CC1=C(C(=O)N2CCCCCC2)CC(CC(=O)NCCc2ccccn2)C(=O)N1Cc1ccc(C(C)(C)C)cc1 (stereo not given)	2.4
CC1(C(=O)NS(=O)(=O)Cc2cccc(Cl)c2)CCN1C(=O)c1ccc(C2CCCCC2)cc1 (stereo not given)	4.2
CC(=O)Nc1ccc(-c2ccnc3c2CC(C)(C(=O)NCCc2ccccc2)O3)cc1 (stereo not given)	0.0
O=C(Nc1ccc(Cl)cc1)C1Cc2c(-c3ccccc3Oc3ccccc3)ccnc2O1 (stereo not given)	2.0
NC(COCc1ccccc1)c1csc(NC(=O)Nc2cccc(Cl)c2)n1 (stereo not given)	2.0
Cc1ccc2nc(-c3ccco3)c(CC(C)(C)C)n2c1	3.5
Fc1cccc(Cc2c(-c3ccccc3)nc3c4ccccc4ccn23)c1	7.1
CC1(C(=O)NS(=O)(=O)c2ccc(Cl)cc2)CCN1C(=O)C1CC1 (stereo not given)	2.4
CCCC(=O)N1CCC1(C)C(=O)Nc1ccc(OC)c(OC)c1 (stereo not given)	7.7
CC1(C(=O)NS(=O)(=O)c2cccs2)CCN1C(=O)c1ccccc1CCc1ccccc1 (stereo not given)	4.6
COc1ncnc2c1ncn2CCCN(C)Cc1ccco1	6.2
CCOc1cc(N2CCOCC2)c(OCC)cc1NC(=O)c1cccc(S(=O)(=O)N2CC(C)OC(C)C2)c1 (stereo not given)	-2.5
CCc1nc2ccc(C(=O)Nc3ccc(NC(C)=O)cc3)cn2c1N(C)CCCc1ccccc1	-0.2
CC(C(=O)NC(C)(C)C)n1c(-c2ccc3c(c2)OCO3)nc2ccccc21 (stereo not given)	-2.1
CNc1ncnc2c1ncn2[C@H]1CN(Cc2ccncc2)C[C@@H](CO)O1	-0.7
CC(C)C(N)c1csc(Nc2ccc(C(=O)N(C)Cc3ccccc3)cn2)n1 (stereo not given)	4.8
CC1(C(=O)NCc2cccs2)CCN1CCc1ccccc1 (stereo not given)	2.0
O=C(O)C1CCCCN1c1ccccc1[N+](=O)[O-] (stereo not given)	3.6
COCCNC(=S)N1CCC2CC1c1cc(-c3ccc4c(c3)OCO4)ccc12 (stereo not given)	1.2
Cc1ccc(C(=O)CCC(=O)OCC(=O)Nc2cc(S(=O)(=O)N(C)C)ccc2C)cc1	-1.3
CC(C)CN1C(=O)CN(S(C)(=O)=O)CC1(C)C(=O)NC(C)C (stereo not given)	-1.8
C#CCNC(=O)C[C@@H]1C[C@@]2(C(=O)OC)CC(C)(C)CC=C2N(Cc2ccco2)C1=O	-2.9
O=C(NCc1cccc(C(F)(F)F)c1)c1c[nH]c(=O)s1	-2.8
CCc1nc2c(OCC(=O)C(C)(C)C)cccn2c1N(C)C(=O)Nc1ccccc1OC	1.5
CC(=O)C1=CCC(c2ccccc2Cl)N(S(=O)(=O)c2ccc(C)cc2)C1 (stereo not given)	1.1
CC(C)(C)NC(=O)C(c1ccnc2ccccc12)n1c(=O)c(-c2ccco2)nc2ccccc21 (stereo not given)	17
OCc1cccc(-c2csc(C(O)c3ccco3)n2)c1 (stereo not given)	2.3
CC1(C(=O)NS(=O)(=O)c2ccc(Br)cc2)CCN1C(=O)c1cccc(F)c1 (stereo not given)	1.6
O=C1C=C(O)CC2(CCCCC2)C1	4.1
CCOc1ccccc1NC(=O)CN(c1ccc(OC)c(OC)c1)S(=O)(=O)c1ccc(C)cc1	-2.9
COc1ccc(S(=O)(=O)NC(=O)C2(C)CCN2C(=O)C2(c3ccccc3)CCCC2)cc1 (stereo not given)	-0.1
CCCCNC(=O)C1c2ccccc2OCC(=O)N1Cc1ccccc1 (stereo not given)	-2.7
CC1(C(=O)Nc2ccc3c(c2)OCCO3)CN(S(C)(=O)=O)CC(=O)N1CCCN1CCOCC1 (stereo not given)	-0.1
COc1ccc(CN2C(=O)C(CC(=O)NC3CC3)CC(C(=O)N3CCOCC3)=C2C)cc1 (stereo not given)	0.7
COc1cccc(NC(=O)C2(C)CCN2Cc2ccccc2OC(F)F)c1 (stereo not given)	-4.5
CCOC(=O)[C@]12CCC=C1N(Cc1ccc(Cl)cc1Cl)C(=O)[C@H](CC(=O)N1CCOCC1)C2	-0.9
CCc1ccccc1Oc1nc(NCc2ccccc2)nc2ccsc12	-0.9
CCCCN1CC(N2CCN(CCN(C)C)CC2)CS1(=O)=O (stereo not given)	-1.2
CCCNC(=O)C1(C)CCCN(Cc2c(C)nn(-c3ccccc3)c2C)C1 (stereo not given)	2.3
O=C(CCNS(=O)(=O)c1ccc(Br)cc1)NCC(c1cccs1)N1CCOCC1 (stereo not given)	-2.1
Cc1ccc(S(=O)(=O)N2[C@@H](CCO)OC[C@H]2C(C)C)cc1	2.2
COCCNC(=O)C1(C)CCN(Cc2ccc(C(C)C)cc2)C1 (stereo not given)	-2.5
CCC(CC)C(C(=O)NCc1ccccc1)N1CCN(c2cccc(C)c2C)CC1 (stereo not given)	-3.2
Cc1csc(-c2nc3ccccc3n2C(C(=O)Nc2c(C)cccc2C)C2CC2)c1 (stereo not given)	0.3
CCOC(=O)C1=CCN(S(=O)(=O)c2ccc(F)cc2)C1c1cccc(C)c1 (stereo not given)	2.7

Three compounds from above, arranged by SMILES length, lowest first.
SMILES	HNF4A DNA FP
CCCCN1CC(N2CCN(CCN(C)C)CC2)CS1(=O)=O (stereo not given)	-1.2
COCCNC(=O)C1(C)CCN(Cc2ccc(C(C)C)cc2)C1 (stereo not given)	-2.5
Cc1ccc(S(=O)(=O)N2[C@@H](CCO)OC[C@H]2C(C)C)cc1	2.2

Later entries
SMILES	HNF4A DNA FP
Cc1ccc(CN2CCN(C(=O)/C=C/[C@H]3O[C@@H](n4cc(C)c(=O)[nH]c4=O)C[C@@H]3O)CC2)cc1	1.4
CC(=O)Nc1cc(-c2ccc(C(=O)N3CCOCC3)cc2)cn2c(-c3ccc(F)cc3)cnc12	1.1
OC(c1cccnc1)c1nc(-c2ccc3c(c2)OCO3)cs1 (stereo not given)	-0.4
COc1ccc(NC(=O)C2Cc3c(-c4ccccc4Oc4ccccc4)ccnc3O2)cc1 (stereo not given)	0.1
Cc1ccccc1-c1cc2nc(NCc3ccc4occc4c3)n(C)c(=O)c2s1	-2.8
OC(c1cccc(Cl)c1)c1nc(-c2cccc3cccnc23)cs1 (stereo not given)	-3.4
OC[C@@H]1CN(Cc2ccncc2)C[C@H](n2cnc3c(N4CCN(c5ccccc5)CC4)ncnc32)O1	0.7
Nc1ccc(CNC(=O)c2cc3cc(Cl)ccc3nc2N)cc1	1.8
COc1ccc(OCCN2CCC(C(=O)NC(C)c3cccc4ccccc34)CC2)cc1 (stereo not given)	0.6
O=C1NC[C@@H](Cc2ccc(O)cc2)N(CCCCC2CCCCC2)C1=O	0.0
COc1ccc(C(=O)COC(=O)C2COc3ccccc3O2)c(OC)c1 (stereo not given)	-1.9
CCc1nnc(NC(=O)Cc2ccc(OC)c(S(=O)(=O)N3CCOCC3)c2)s1	0.4
Cc1cc(C)cc(Cn2c3ccc(NC(=O)NCc4ccccc4)cc3c(=O)n2C)c1	0.3
C=C1C[C@@H]2C[C@@H]2CN(S(=O)(=O)c2ccc(C)cc2)[C@@H]1COCc1ccccc1	-5.2
COc1ccc(Oc2c(OC)cc(NCc3ccc(CN)cc3)c3ncccc23)cc1	-40
OCc1ccc(-c2cccc3nccn23)cc1	-0.2
Cc1cccc(C)c1NC(=O)C(c1ccccc1F)n1c(=O)c(-c2ccco2)nc2ccccc21 (stereo not given)	45*
COc1ccc(S(=O)(=O)NC(=O)C2(C)CCN2C(=O)C2CC2)cc1 (stereo not given)	0.3
OC(c1ccccc1)c1nc(-c2cc3ccccc3o2)cs1 (stereo not given)	2.5
Cc1cccc(C)c1-n1nnnc1C1c2ccccc2C(=O)N1C1CC1 (stereo not given)	-0.3
Cc1ccc(S(=O)(=O)N(C)C[C@H]2Oc3cc(Br)ccc3S(=O)(=O)N([C@H](C)CO)C[C@H]2C)cc1	4.5
CSCCC(C(=O)Nc1c(C)cccc1C)N1CCN(c2ccc(F)cc2)CC1 (stereo not given)	0.7
NC(c1ccccc1)c1csc(NC(=O)Nc2cccc(Cl)c2)n1 (stereo not given)	1.3
O=C(NCc1ccccn1)[C@@H]1CCCN1C(=O)[C@@H]1CCCN1	-1.3
O=C(NC(c1ccc(F)cc1)c1cnccn1)C1CCN(CCOc2ccc(Cl)cc2Cl)CC1 (stereo not given)	0.0
COc1cccc(-c2cccc(-c3nc(C(=O)Nc4ccc(-c5ccccc5)cc4)cc4c3[C@H](CCO)N(S(=O)C(C)(C)C)C4)c2)c1 (stereo not given in full)	9.1
CCC(=O)NC(c1ccco1)c1cc(Br)c2cccnc2c1O (stereo not given)	5.0
O=C1NC[C@@H]2CCCN2C1=O	2.9
CC(C)(C(=O)N1CCC1(C)C(=O)Nc1ccccc1Br)c1ccccc1 (stereo not given)	-1.9
CCOC(=O)[C@]12CCC=C1N(Cc1cccc3ccccc13)C(=O)[C@H](CC(=O)NCc1cccs1)C2	2.2
CCOC(=O)[C@]12CCCC=C1N(Cc1ccccc1)C(=O)[C@H](CC(=O)N1CCOCC1)C2	1.3
CC1(Cc2ccc(F)cc2)C(=O)Nc2ccc(-c3cccnc3)cc21 (stereo not given)	-0.3
CCCCNC(=O)c1nc(C2CCN(S(=O)(=O)c3ccc(OC(F)(F)F)cc3)CC2)oc1-c1ccccc1	0.2
O=C(c1[nH]c(C(F)(F)F)nc1-c1ccccc1)N1CCN(c2cccc(C(F)(F)F)n2)CC1	-0.4
Cc1ccccc1-c1cc2nc(Nc3ccc(F)cc3)n(C)c(=O)c2s1	-2.8
Cc1nc2ccc(NC(=O)C3(C)CCCN(C(C)C)C3)cc2o1 (stereo not given)	-1.3
O=C(Cn1cc(COc2ccc3ccccc3c2)nn1)NS(=O)(=O)c1cccc(OC(F)F)c1	-6.4
COC(=O)[C@]12CCCCC=C1N(Cc1ccco1)C(=O)[C@H](CC(=O)N1CCSCC1)C2	6.0
O=C(Nc1cccc(C(F)(F)F)c1)C1Cc2c(-c3ccco3)ccnc2O1 (stereo not given)	-0.9
OC[C@@H]1CN(Cc2ccc(F)cc2)C[C@H](n2cnc3c(NCc4ccco4)ncnc32)O1	-0.2
CCNC(=O)C1(C)CCN(C(=O)c2ccc(C)c(F)c2)C1 (stereo not given)	2.1
COC(=O)c1ccc2nc(-c3ccc(C)cc3)c(Cc3ccsc3)n2c1	3.3
O=C1NC[C@H](CCCCN2CCN(CCc3ccc(O)cc3)C(=O)C2=O)N(CCC2CCCCC2)C1=O	-3.8
COC(=O)c1ccc(Cn2c(C)c(C(=O)NCc3ccco3)sc2=O)o1	1.0
O=C(Nc1ccc(F)cc1)C(c1ccncc1)N1CCN(C(=O)c2ccco2)CC1 (stereo not given)	4.2
O=C(Nc1ccccc1)c1cc(C2CCCN(C(=O)C3CC3)C2)on1 (stereo not given)	-1.2
O=C1NC[C@H](CCCCN2C[C@H](Cc3ccccc3)N(Cc3ccccc3)C(=O)C2=O)N(CCC2CCCCC2)C1=O	-0.3

Sorted by value in HNF4A DNA FP (highest first): 3 of the compounds above.
SMILES	HNF4A DNA FP
Fc1cccc(Cc2c(-c3ccccc3)nc3c4ccccc4ccn23)c1	7.1
COc1ccc(S(=O)(=O)NC(=O)C2(C)CCN2C(=O)C2CC2)cc1 (stereo not given)	0.3
COCCCN1C(=O)C(CC(=O)NC2CC2)CC(C(=O)N2CCOCC2)=C1C (stereo not given)	-1.2

A portion from further up, for reference:
SMILES	HNF4A DNA FP
COC(=O)c1ccc(Cn2c(C)c(C(=O)NCc3ccco3)sc2=O)o1	1.0
O=C(Nc1ccc(F)cc1)C(c1ccncc1)N1CCN(C(=O)c2ccco2)CC1 (stereo not given)	4.2
O=C(Nc1ccccc1)c1cc(C2CCCN(C(=O)C3CC3)C2)on1 (stereo not given)	-1.2

This is a subset; rates above refer to the full screens.
